Compound activity deposited in PubChem BioAssay by National Center for Advancing Translational Sciences (NCATS).
miR-21 reporter: raises the signal of a miR-21 reporter; 340,000 tested, under 10 active; HeLa miR-21 FLuc reporter, luciferase, 48 h; Potency, µM (series often up to 38.3 µM), for inactives: top-dose reporter change, positive = more light; active = well fitted rising curve with a large enough effect; inconclusive = small, poorly fitted or top-dose-only effect; inactive = no such curve, though single readings can be large or run the other way;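 also: % of control where 0% means no effect; miR-21 action dims this reporter so a rising signal means less miR-21 action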
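Using DMEM plus 10% FBS, HeLa miR-21-FLuc cells are incubated with test compounds (final up to about 40uM) for 48 hours; firefly luciferase signal is then imaged following reagent-mediated lysis.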
GLA inh pH 4.5: inhibitors of human alpha-galactosidase A at pH 4.5; P06280; purified enzyme, 4-MU-alpha-Gal fluorescence, pH 4.5; activity change, negative = inhibition, % at 105 µM; 230,000 tested, under 10 active; inconclusive = small, poorly fitted or top-dose-only inhibition, or a rising curve; inactive = flat fitted curve, though single readings scatter; no compound was filed as active;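 also: 0% = full activity with enzyme and -100% = basal without enzyme; dose as in the result columns while the protocol names 77 µM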
Rango dissoc inh: prevents RanGTP from dissociating the Rango-importin beta complex; Biochemical FRET Rango-importin beta, RanGTP-induced dissociation; O95149+P62826; hit rate 0.071% among 340,000; Potency, µM (doses to about 46.1 µM), without a hit: top-dose activity change, negative = inhibition; active means falling FRET ratio curve, often poorly fitted, with flat reads before Ran was added; inconclusive means other falling curves, or compound fluorescence or quenching; inactive means flat or rising ratio curve;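 also: potency is read from the fitted curve at half-maximal effect; % of control where 0% means no effect; nearly all actives have a fitted effect of over 45% in size; -100% = wells without RanGTP and RCC1; the record marks most hits as doubtful in a second field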
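Rango FRET biosensor (snurportin-1 IBB flanked by N-terminal EYFP and C-terminal CFP10) at 0.1 uM, with 0.25 uM importin beta in PBS, 1mM DTT, 0.02% Tween-20, 0.1% BSA. 0.6 uM Ran, 2mM GTP and 0.2 uM RCC1 were then added for 45 min at room temperature. Inhibition read as loss of FRET rise.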
Rango complex inh: inhibitors of Rango-importin beta complex formation; Rango CFP/YFP FRET sensor + importin beta, 45 min; Potency, µM (series often up to 92.2 µM), inactives show at the highest dose inhibition of complex formation; hit rate 0.031% among 340,000; Q14974; AID 540263; active = rising FRET ratio curve, often small or poorly fitted; inconclusive = mostly compound fluorescence or quenching in the first reads; inactive = flat curves in all reads;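 also: potency is read from the fitted curve at half-maximal effect; 0% = DMSO wells and 100% = buffer wells lacking importin beta; nearly all actives have a fitted effect of over 15% in size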
Target sequence (Q14974 whole entry, looked up): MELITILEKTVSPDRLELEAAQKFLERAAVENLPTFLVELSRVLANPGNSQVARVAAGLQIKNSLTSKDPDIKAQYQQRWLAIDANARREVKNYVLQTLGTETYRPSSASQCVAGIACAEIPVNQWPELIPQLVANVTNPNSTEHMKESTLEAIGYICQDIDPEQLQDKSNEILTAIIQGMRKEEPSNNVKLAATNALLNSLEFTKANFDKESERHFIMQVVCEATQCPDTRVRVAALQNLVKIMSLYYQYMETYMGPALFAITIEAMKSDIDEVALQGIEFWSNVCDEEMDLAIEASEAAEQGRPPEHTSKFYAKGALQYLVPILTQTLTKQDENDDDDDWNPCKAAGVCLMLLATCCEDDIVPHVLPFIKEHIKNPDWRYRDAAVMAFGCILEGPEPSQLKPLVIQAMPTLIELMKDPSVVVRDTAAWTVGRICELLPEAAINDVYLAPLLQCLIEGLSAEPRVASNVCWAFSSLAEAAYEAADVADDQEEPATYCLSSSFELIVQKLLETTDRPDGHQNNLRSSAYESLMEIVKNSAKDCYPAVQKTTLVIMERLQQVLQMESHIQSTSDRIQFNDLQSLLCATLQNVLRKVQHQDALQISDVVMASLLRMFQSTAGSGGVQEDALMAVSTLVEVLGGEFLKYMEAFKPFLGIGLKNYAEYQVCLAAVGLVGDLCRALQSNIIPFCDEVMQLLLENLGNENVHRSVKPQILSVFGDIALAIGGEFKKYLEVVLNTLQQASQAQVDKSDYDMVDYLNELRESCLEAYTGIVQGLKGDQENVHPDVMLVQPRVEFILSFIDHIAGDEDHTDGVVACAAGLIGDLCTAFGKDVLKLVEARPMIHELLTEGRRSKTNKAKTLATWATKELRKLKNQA
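FRET biosensor (snurportin 1 IBB flanked by EYFP and cerulean), 50 nM, with compound 5 min, then 0.125 microM importin beta in PBS, 1 mM DTT, 0.02% Tween-20, 0.1% BSA. CFP/YFP ratio read after 45 min at room temperature; pre-read flags interference.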
The depositor's hits bear a star; ? = inconclusive; nt = not tested or not shown; & = joins results of further samples; [ ] = dose if it differs, or a comment.

miR-21 reporter | Rango dissoc inh | GLA inh pH 4.5 | Rango complex inh | Structure
-9.9% | 13.0% | ? | -1.8% | CCCCN(CC)CCCNC(=O)c1cc2cc3ccc(OC)cc3nc2o1
nt | -3.5% | nt | 3.4% | O=C(COC(=O)c1cc(S(=O)(=O)N2CCCCC2)ccc1N1CCOCC1)c1ccc(F)cc1
-4.7% | -1.0% | nt | 6.3% | CC(C)(c1ccccc1)c1ccc(OCC(O)CN2CCCC2)cc1 (stereo not given)
-2.0% | 17.2% | 0.6 | -2.6% | Cc1ccc(C)c(OCC(=O)NCCN(C)C)c1
0.3% | 1.0% | -9.3 | 2.0% | O=C(CN(CCc1ccccc1)S(=O)(=O)c1ccc(Cl)cc1)N/N=C/c1ccccc1C(=O)O
-1.8% | -17.9% | 2.0 | 0.2% | CC(C)(O)CCCC(C)(O)c1ccc(C(=O)O)cc1O (stereo not given)
10.9% | -1.4% | -0.2 | -4.1% | COc1ccc(-c2nn(-c3ccccc3)cc2/C=N/NC(N)=S)cc1OC
-1.2% | 3.0% | 8.2 | 0.3% | CC1C(c2ccccc2)=[N+]([O-])C2(CCCCC2)N1O (stereo not given)
21.6%&29.7% | 0.6% | nt | ? | COc1ccc(N(CC(=O)Nc2cc(Cl)ccc2C)S(=O)(=O)c2c(C)noc2C)cc1
-5.0% | nt | 2.4 | nt | Cc1nn(-c2ccccc2)c2sc(C(=O)C(C#N)c3ccccn3)cc12 (stereo not given)
0.7% | -16.0% | -2.2 | 1.3% | COc1cc(CCC(=O)Nc2cc(C)cc(C)c2)cc(OC)c1OC
-6.5% | 9.7% | -0.4 | 0.9% | O=C(COC(=O)c1cccs1)NC12CC3CC(CC(C3)C1)C2
0.0% | 11.2% | -0.6 | 0.8% | COc1ccc2oc(C(=O)OCC(=O)c3ccc4c(c3)OCCO4)c(C)c2c1
nt | 33.3% | nt | -0.2% | Cn1nc(C(=O)Nc2ccc3c(c2)OCCO3)c2ccccc2c1=O
-5.1% | 5.3% | nt | -0.2% | COc1cc2cc(C(=O)NCCc3ccccc3)[nH]c2cc1OC
-10.1% | 16.4% | -0.9 | 4.7% | NS(=O)(=O)c1ccc(NC(=O)Cn2ncc3c2-c2ccccc2OC3)cc1
-15.4% | -1.5% | nt | -1.6% | O=C1CCC(C(=O)N2CCCCO2)CN1CCc1ccc(Cl)cc1 (stereo not given)
nt | -3.5% | nt | -1.6% | COc1ccccc1C(=O)NCCC(=O)NC(C)c1ccc(-n2ccnc2)cc1 (stereo not given)
0.4% | 0.4% | -0.8 | -1.0% | Cc1cccnc1NC(=O)C12CCC(C)(C(=O)O1)C2(C)C (stereo not given)
-57.5% | 4.9% | -8.8 | 0.6% | Fc1ccccc1CSc1nnc(-c2cccnc2)o1
0.4% | 2.5% | nt | 0.7% | CCN(CC)C(=O)Cn1cc(C(=O)C(=O)N2CCN(C)CC2)c2ccccc21
-4.7%&4.3% | ? | nt | -0.3% | CCSc1ncc(Cl)c(C(=O)Nc2ccc(S(=O)(=O)Nc3ncccn3)cc2)n1
-20.4% | -26.9% | -1.4 | 3.2% | CCc1ccc2c(CSc3nnnn3C)cc(=O)oc2c1
nt | -8.6% | nt | -0.9% | O=C(COC(=O)Cc1ccccc1F)NNC(=O)c1ccc([N+](=O)[O-])cc1
-0.6% | 5.0% | nt | -1.9% | CCCCC(=O)N1CC(=O)Nc2ccc(F)cc2C1c1ccccc1 (stereo not given)
-1.6% | -9.8% | nt | 6.3% | CS(=O)(=O)Cc1ccc(C(=O)NC2CCCc3ccccc32)cc1 (stereo not given)
-1.7% | -6.7% | -1.0 | -0.4% | Cc1c(NC(=O)CN2C(=O)NC(CCc3ccccc3)C2=O)c(=O)n(-c2ccccc2)n1C (stereo not given)
0.4% | ? | ? | ? | Fc1ccc(C2CC(c3cccs3)=NN2c2ccccc2)cc1 (stereo not given)
nt | -0.7% | nt | -1.1% | CCCCN(C(=O)c1ccc(N2CCCC2=O)cc1)c1c(N)n(Cc2ccccc2)c(=O)[nH]c1=O
-51.7% | 1.7% | -4.9 | -0.2% | CCCCCC(=O)c1ccc(O)cc1O
17.6% | 1.5% | -18.7 | 0.5% | Cc1cccc(N2CCN(C(=O)c3c(C)nn(Cc4ccccc4Cl)c3C)CC2)c1C
-7.8% | 0.1% | 11.1 | -1.6% | O=S(=O)(Nc1cccc(Oc2cnccn2)c1)c1ccc(F)cc1
-1.3% | 40.5% | nt | 8.7% | Cc1cc(C)c(C#N)c(SCc2ccc(C(=O)O)cc2)n1
-22.8% | 8.6% | -2.3 | -4.8% | Sc1oc(-c2ccccc2)cc1C=Nc1ccccc1
-47.2% | 0.1% | -6.6 | -0.7% | Cc1ccc(NC(=O)Nc2cc(S(C)(=O)=O)ccc2Cl)cc1
-26.4% | nt | -7.3[21.1 µM] | nt | CCOc1ccc(NC(=S)N(CC)Cc2ccccc2)cc1
-10.6% | -6.4% | 5.0 | 2.9% | O=C(O)C1CC(O)CN1C(=O)c1ccco1 (stereo not given)
5.2% | 6.1% | nt | 2.6% | O=C(c1c[nH]c(C(=O)C(Cl)(Cl)Cl)c1)c1ccc(F)cc1F
-11.9% | 0.5% | 9.6 | 2.2% | CCO/C=C1\N=C(c2ccc(F)cc2)OC1=O
5.8% | -9.5% | nt | -0.9% | CCn1c(SCC(=O)Nc2ccc(Br)cn2)nnc1C1CC1
-13.6% | -27.5% | 1.3 | ? | O=C1CCCC/C1=C/Nc1ccc2c(c1)OCO2
6.6%&9.8% | 3.6% | nt | 0.0% | NC(=O)CSc1oc(-c2ccco2)nc1S(=O)(=O)c1ccc(Cl)cc1
nt | 22.6% | nt | 0.0% | CC(C)NC(=O)Nc1cccc2c1O[C@H](CN(C)S(=O)(=O)c1ccc(F)cc1)[C@@H](C)CN([C@H](C)CO)C2=O
0.8% | -10.1% | 5.5 | 0.9% | Cc1ccc(NNC2CC(=O)N(c3cccc(Cl)c3)C2=O)cc1 (stereo not given)
3.0% | 0.4% | nt | 2.3% | COc1ccccc1N(CC(=O)NC1CCCC1)C(=O)CCCC(=O)Nc1ccccn1
-2.9% | ? | -5.5 | ? | Cn1c(=O)nc2n(Cc3ccccc3)c3cccc(Cl)c3cc-2c1=O
11.8% | 9.8% | nt | -2.7% | Cc1nc(Nc2cccc(Cl)c2)c2oc3ccccc3c2n1
7.4% | -10.1% | -3.6 | ? | CN(C)c1nc(NC(C)(C)C)nc(SCC(=O)Nc2ccccc2)n1
0.2% | -9.6% | -2.9 | 0.3% | Cc1c(NC2(C#N)CCCCC2)c(=O)n(-c2ccccc2)n1C
-0.6% | 1.3% | -5.1 | -2.3% | CCCCNC(=S)N/N=C1\C(=O)c2cccc3cccc1c23

In the list so far, these have a cyano group:
miR-21 reporter | Rango dissoc inh | GLA inh pH 4.5 | Rango complex inh | Structure
-5.0% | nt | 2.4 | nt | Cc1nn(-c2ccccc2)c2sc(C(=O)C(C#N)c3ccccn3)cc12 (stereo not given)
-1.3% | 40.5% | nt | 8.7% | Cc1cc(C)c(C#N)c(SCc2ccc(C(=O)O)cc2)n1
0.2% | -9.6% | -2.9 | 0.3% | Cc1c(NC2(C#N)CCCCC2)c(=O)n(-c2ccccc2)n1C

The list goes on.
miR-21 reporter | Rango dissoc inh | GLA inh pH 4.5 | Rango complex inh | Structure
-57.1% | 20.1% | 5.4 | 3.4% | Clc1ccc(-c2cc(COc3ccccc3)on2)cc1
-0.5%&0.7% | 13.5% | nt | 7.2% | Cn1nc(C(=O)N2CCN(c3cccc(Cl)c3)CC2)c2c1-c1ccccc1S(=O)(=O)C2
0.8% | ? | nt | -0.8% | CC(C)NC(=O)C(=O)NCC(c1ccc2c(c1)OCO2)N1CCOCC1 (stereo not given)
2.0% | 13.1% | 3.4 | 4.0% | Cc1cccc(N2CCN(C(=S)Nc3ccc4nc5n(c(=O)c4c3)CCCCC5)CC2)c1C
-3.5% | 4.9% | 1.3 | 0.0% | O=C1CC(c2ccccc2)n2nc(N3C(=O)CCC3=O)nc2N1 (stereo not given)
-3.8% | 0.4% | 2.4 | 2.8% | COCCOC(=O)c1c(NC(=O)CN2CCCc3ccccc32)sc(C(N)=O)c1C
4.1% | 1.5% | nt | -0.5% | Cc1cccc(NC(=O)C2CCN(C(=O)N3CCOc4ccccc43)CC2)c1C
-27.3% | 0.6% | 3.0 | -3.3% | CCOC(=O)c1nc(NCc2cccnc2)c2ccccc2n1
-1.3% | 37.0% | -0.1 | -0.7% | O=C(CSc1n[nH]c(=O)[nH]c1=O)c1ccccc1
-7.1% | 21.3% | nt | 0.2% | Cc1ccccc1CSc1nnc(-c2ccncc2)n1C
-43.8% | -5.4% | -4.5 | 4.2% | COc1ccc(C(=O)Nc2ccc(OC)c(OC)c2)cc1
nt | -3.5% | nt | 0.1% | O=C(COC(=O)c1ccccc1O)Nc1cccc2ccccc12
-3.3% | 8.6% | nt | -4.9% | Cc1cccc(C(=O)Nc2cccc(C(=O)NC3CCCC3)c2)c1
-7.6% | -2.1% | 0.0 | -4.5% | CCOC(=O)C1C(c2ccc(O)c(O)c2)NC(=S)NC1(O)C(F)(F)F (stereo not given)
-5.2% | ? | 1.0 | ? | C=CCn1c(CCNC(=O)c2cccs2)nnc1SCC(=O)Nc1cccc(C(C)=O)c1
nt | -1.3% | nt | 0.9% | Cc1cc(O)c(CN2CCN(S(=O)(=O)c3cccs3)CC2)cc1C(C)C
-9.4% | -26.3% | -27.2 | -0.3% | CCOc1cc(CNc2ccc(N(C)C)cc2)cc(Br)c1OCC(=O)NC(C)(C)C
-4.8% | 11.0% | 1.3 | 2.5% | C/C(Cl)=C\Cn1c(N2CCCCCC2)nc2c1c(=O)n(C)c(=O)n2C
-14.7% | 2.6% | 0.4 | 1.2% | CCOc1ccc(CN2CCN(Cc3[nH]c4ccc(OC)cc4c3C)CC2CCO)cc1 (stereo not given)
0.0% | 2.4% | 1.7 | -0.1% | CC1(C)CC(=O)C2=C(C1)Nc1[nH]c(=S)[nH]c(=O)c1C2c1ccccc1 (stereo not given)
7.6% | 0.9% | 2.0 | -0.4% | CCOc1cc(-c2c(C)c(CC)nc(N)c2C#N)ccc1O
nt | 1.1% | nt | -1.3% | CCOc1ccc(S(=O)(=O)N2CCN(C3CC(=O)N(c4cccc(C(C)=O)c4)C3=O)CC2)cc1 (stereo not given)
0.4% | -0.8% | 2.9 | -5.6% | CCCCn1c(SCC(=O)NCCc2ccc(OC)c(OC)c2)nc2c1c(=O)n(C)c(=O)n2C
-4.0% | ? | -8.1 | ? | COC(=O)[C@H]1[C@H]2C[C@@H]3c4[nH]c5cc(OC)ccc5c4CCN3C[C@H]2C[C@@H](OC(=O)c2ccc(N)cc2)[C@@H]1OC
-12.5% | 2.1% | 7.5 | -3.3% | CN(CC(=O)Nc1sccc1C#N)Cc1ccccc1
-1.9% | ? | nt | ? | Cc1cccn2c(=O)c3cc(C(=O)NC4CCCCC4)c(=N)n(Cc4ccc(F)cc4)c3nc12
-4.2% | 0.2% | -5.0 | 0.1% | Cc1cc(C(=O)NCCCN2CCOCC2)n(-c2ccccc2)n1
-2.4% | 0.6% | 11.9 | -1.2% | O=C(COC(=O)c1ccc(Br)cc1)NCCN1C(=O)CSC1=O
-0.2% | 4.3% | 2.6 | -0.6% | Cc1ccccc1N(CC(N)=O)S(C)(=O)=O
nt | -6.6% | nt | ? | COc1ccc(NC(=O)COc2coc(CN3CCN(c4ccccc4)CC3)cc2=O)cc1
-2.1% | -19.8% | 7.4 | -1.8% | CN(CCC1CCOCC1)C(=O)CC1C(=O)NCCN1Cc1ccoc1 (stereo not given)
-0.9% | -6.0% | nt | 0.1% | C[C@@H]1NC(=O)N(c2ccc(F)cc2)C1=O
-2.3% | 2.5% | 0.4 | -3.3% | CC(C)n1nnc2ccccc2c1=O
-0.9% | 2.5% | ? | 2.7% | COc1cccc(NC(C)C(=O)Nc2cc([N+](=O)[O-])ccc2Cl)c1 (stereo not given)
-0.8% | -4.5% | -11.6 | 4.3% | CCC(=O)Nc1cccc(-c2nc3ccccc3c(=O)o2)c1
-34.3% | -9.2% | -25.8 | -0.1% | Cc1ccc(-c2cc(C(=O)NCCCn3ccnc3)no2)cc1

Not all compounds are listed; rates above refer to the full screens.
